RGS12 GoLoco inh: qHTS Assay for Inhibitors of RGS12 GoLoco Motif Activity (Red Fluorophore); 230,000 tested, 0.44% active; Potency, µM (highest dose often 61.6 µM), for the others: at the top dose activity, negative = inhibition, actives largely listed as inhibitors; Gai1:RGS12 GoLoco peptide FP, rhodamine, 10 min; AID 880, 2007; Guanine nucleotide-binding protein G(i) subunit alpha-1 (Homo sapiens), P63096; active = well fitted inhibition curve with a large enough effect, not every such curve was filed as active; inactive = no such curve, though single readings can be large or run the other way; note: % is set by controls: 0 for no effect and ±100 for the full control effect; nearly all actives have a fitted effect of over 30% in size; many of its hits are not listed in these tables
Target sequence (P63096 whole entry, looked up): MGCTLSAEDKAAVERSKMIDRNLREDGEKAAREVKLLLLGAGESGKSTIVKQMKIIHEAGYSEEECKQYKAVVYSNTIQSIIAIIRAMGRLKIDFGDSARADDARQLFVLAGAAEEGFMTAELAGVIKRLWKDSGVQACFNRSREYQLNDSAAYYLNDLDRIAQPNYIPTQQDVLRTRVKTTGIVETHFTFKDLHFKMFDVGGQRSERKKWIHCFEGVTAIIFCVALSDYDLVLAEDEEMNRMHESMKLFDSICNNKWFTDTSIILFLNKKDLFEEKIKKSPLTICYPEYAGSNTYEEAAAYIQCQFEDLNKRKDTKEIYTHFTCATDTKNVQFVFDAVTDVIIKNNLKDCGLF
TexasRed fluor: Total Fluorescence Counterscreen for Inhibitors of the Interaction of Thyroid Hormone Receptor and Steroid Receptor Coregulator 2. TRb/SRC2 Texas Red total fluorescence interference. Potency, µM (highest dose often 106 µM), for inactives: at the top dose fluorescence change, negative = quenching. 280,000 tested, 0.29% active; active = well fitted curve in either direction with a large enough effect; inconclusive = small, poorly fitted or top-dose-only effect; note: % is set by controls: 0 for no effect and ±100 for the full control effect
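Human TRb ligand-binding domain at 0.6 uM with 20 nM Texas Red SRC2 peptide in Tris buffer containing 1 uM T3 and 5% DMSO, incubated with compound 5 h at ambient temperature. Total fluorescence (555/632 nm) calculated as parallel + 2 × perpendicular.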
TRb-SRC2 inh: qHTS for Inhibitors of the Interaction of Thyroid Hormone Receptor and Steroid Receptor Coregulator 2 | Thyroid hormone receptor beta (Homo sapiens), P10828 | 280,000 tested, 0.065% active | Potency, µM (titrated, usually from 106 µM), for inactives: top-dose activity change, negative = inhibition, actives largely listed as inhibitors | TRbeta-SRC2 peptide binding, fluorescence polarization; receptor liganded with 1 µM T3;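 note: plate controls were bound peptide for no effect and peptide without receptor for full effect; nearly all actives have a fitted effect of over 50% in size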
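Decrease in fluorescence polarization of 20 nM Texas Red SRC2 coactivator peptide flagged inhibition of its binding to 0.6 uM TRb LBD; 1 uM T3 included, incubation 5 hr, ex 555/em 632 nm.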
RECQ1 helicase: qHTS Assay for Inhibitors of RecQ-Like Dna Helicase 1 (RECQ1). ATP-dependent DNA helicase Q1 (Homo sapiens), P46063. RECQ1 DNA unwinding, red fluorescence kinetic read. Potency, µM (highest dose often 57.3 µM), inactives show at the highest dose activity, negative = inhibition, most hits filed as inhibitors. 240,000 tested, 0.54% active;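 note: plate controls were vehicle for no effect and no enzyme for full effect; nearly all actives have a fitted effect of over 30% in size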
Target sequence (P46063 whole entry, looked up): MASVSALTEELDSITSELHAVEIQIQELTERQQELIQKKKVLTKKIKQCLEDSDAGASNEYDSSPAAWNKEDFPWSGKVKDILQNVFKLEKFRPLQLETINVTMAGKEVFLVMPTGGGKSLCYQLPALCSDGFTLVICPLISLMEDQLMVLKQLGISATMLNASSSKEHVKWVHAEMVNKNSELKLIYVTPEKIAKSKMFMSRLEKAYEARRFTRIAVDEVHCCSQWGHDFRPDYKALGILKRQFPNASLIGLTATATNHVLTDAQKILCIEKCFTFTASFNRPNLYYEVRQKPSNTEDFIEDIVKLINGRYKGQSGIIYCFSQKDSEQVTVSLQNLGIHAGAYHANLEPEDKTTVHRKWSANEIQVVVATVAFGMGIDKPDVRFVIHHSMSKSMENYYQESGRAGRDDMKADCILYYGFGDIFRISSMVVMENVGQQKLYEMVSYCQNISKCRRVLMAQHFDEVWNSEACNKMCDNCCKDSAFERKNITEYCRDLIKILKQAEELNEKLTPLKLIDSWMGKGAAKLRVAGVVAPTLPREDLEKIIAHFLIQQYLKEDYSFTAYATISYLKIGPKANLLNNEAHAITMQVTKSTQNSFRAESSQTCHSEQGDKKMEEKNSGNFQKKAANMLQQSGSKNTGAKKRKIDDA
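RECQ1T1 50 nM; forked duplex (20 bp + 30-nt ss tails) 200 nM, ATP 2 mM final; pH 8.0, 2 mM MgCl2, 2.5 ug/ml poly(dI-dC); 15 min compound preincubation; discontinuous kinetic read over 2 h at RT.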
KDM4E inh: qHTS Assay for Inhibitors of Human Jumonji Domain Containing 2E (JMJD2E). JMJD2E catalytic domain, FDH-coupled NADH fluorescence (FDH is formaldehyde dehydrogenase). Potency, µM (series often up to 57.1 µM), for inactives: top-dose activity change, negative = inhibition, actives largely listed as inhibitors. 230,000 tested, 1.6% active. AID 2147, 2009; active = well fitted inhibition curve with a large enough effect, not every such curve was filed as active; inconclusive = small, poorly fitted or top-dose-only effect, or another doubt; inactive = no such curve, though single readings can be large or run the other way;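 note: 0% = wells with enzyme and -100% = buffer wells without enzyme; nearly all actives have a fitted effect of over 50% in size; many of its hits are not listed in these tables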
Lamin A splicing: qHTS Assay for Modulators of Lamin A Splicing. HeLa LMNA splicing GFP/RFP minigene ratio, 48 h. Potency, µM (titrated, usually from 46.1 µM), for the others: top-dose ratio change, negative = inhibition, actives largely listed as inhibitors. 200,000 tested, 0.01% active. AID 1487, 2009; active = well fitted inhibition curve with a large enough effect in the signal ratio, with a control signal flat, not every such curve was filed as active; inconclusive = small, poorly fitted or top-dose-only effect, or effect the other way, or a change in a side signal; the % refers to the signal ratio; note: % is set by controls: 0 for no effect and ±100 for the full control effect
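S3 HeLa stable clones carrying a lamin A-EGFP splicing minigene plus DsRed2 were seeded at 600 cells/well in Opti-MEM with 2% FBS, pin-dosed and incubated 48 h at 37°C. Acumen cytometry (488 nm) gave the GFP/RFP total-intensity ratio.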
SMN2 splice enh: qHTS Assay for Enhancers of SMN2 Splice Variant Expression; 210,000 tested, 2.8% active; HEK293 SMN2-luciferase splicing reporter, luminescence, 30-36 h; Potency, µM (doses to about 46.1 µM), without a hit: at the highest dose activity change, positive = activation, most hits filed as activators; note: % of control where 0% means no effect; nearly all actives have a fitted effect of over 55% in size
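HEK293 cells carry an SMN2 […]–luciferase reporter in which exon 7 inclusion puts luciferase in frame. Cells were plated 10-12 h before compound addition, then incubated 30-36 h at 37C. ONE-Glo luminescence was read; sodium butyrate at 4.5 mM final served as control.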
An asterisk follows results filed as active; i = inactive; ? = inconclusive; . = no result given; [ ] = another dose, or the depositor's remark. Unless noted, calls come from the whole dose curve; as a rule, active = well fitted curve in the direction sought with a large enough effect; inconclusive = small, poorly fitted or top-dose-only effect, or another doubt; inactive = no such curve, though single readings can be large; an effect the other way counts as inactive or inconclusive. Potency is the fitted concentration of half-maximal effect. The list is partial; the hit share may differ from the screen's.

cpd	mol	RGS12 GoLoco inh	TexasRed fluor	TRb-SRC2 inh	RECQ1 helicase
1	CCOC(=O)C(C)n1cnc2sc3c(c2c1=O)CCC3 (stereo not given)	16%	1%	5%	i
2	CC(C)CC(=O)NCCc1ccncc1	-9%	-2%	-18%	-16%
3	COC(=O)c1cc(Sc2cccc(Cl)c2Cl)ccn1	22%	0%	3%	i
4	Cc1ccc(S(=O)(=O)c2cnc3cc(C)nn3c2N)cc1	12%	-4%	-2%	i
5	O=c1[nH]c2ccccc2cc1CN(c1ccccc1)S(=O)(=O)c1ccccc1	2%	-3%	-3%	-1%
6	C#CCNC(=O)C1=C[C@@H](c2ccccc2)[C@H](CCCO)[C@@H](OCC)O1	-15%	0%	1%	-6%
7	CCN1CCN(C(=O)Cn2c(=O)sc3ccccc32)CC1	-5%	2%	2%	-5%
8	Cn1cccc1CC(=O)NNC(=S)Nc1ccc(F)cc1	10%	1%	1%	-10%

cpd	KDM4E inh	Lamin A splicing	SMN2 splice enh
1	-9%	5%	-14%
2	-29%	-2%	2%
3	-9%	?	-4%
4	-1%	29%[46 µM]	-19%
5	?	-6%	-4%
6	8%	.	.
7	5%	2%	7%
8	1%	3%	2%

(listing goes on)
cpd	mol	RGS12 GoLoco inh	TexasRed fluor	TRb-SRC2 inh	RECQ1 helicase
9	Cc1cc(C)n(-c2ccc(Cl)c(C(=O)O)n2)n1	2%	-5%	-17%	-10%
10	CCc1ccc(-c2nnn(Cc3nn[nH]n3)n2)cc1	-5%	-2%	-1%	i
11	Cc1nn(C(C)C)c(C)c1CN1CCN(Cc2ccsc2)C(CCO)C1 (stereo not given)	1%	0%	3%	i
12	Cc1ccc(C(c2sc3nc(C)nn3c2O)N2CC(C)OC(C)C2)cc1 (stereo not given)	-8%	-1%	-1%	-6%
13	O=C(c1ccc(Cl)c(Cl)c1)N1CCC(O)(CN2CCOCC2)CC1	7%	-1%	2%	i
14	NC1=NC(=O)/C(=C/c2c(OS(=O)(=O)c3ccc(Cl)cc3)ccc3ccccc23)S1	7%	-3%	-2%	-3%
15	Fc1ccc(F)c(CN2CCN(c3ncccn3)CC2)c1	-3%	3%	-5%	i
16	COc1ccc(CN(C)CCc2ccccn2)c(OC)c1OC	-2%	0%	0%	-4%

cpd	KDM4E inh	Lamin A splicing	SMN2 splice enh
9	-6%	16%	-7%
10	4%	7%	-1%
11	-1%	.	.
12	-4%	2%	-3%
13	8%	2%[46 µM]	-5%
14	?	-4%	7%
15	7%	2%	19%
16	?	2%	1%

(more compounds)
cpd	mol	RGS12 GoLoco inh	TexasRed fluor	TRb-SRC2 inh	RECQ1 helicase
17	N#CC(C(=O)OC1CCCCC1)c1nc2ccccc2nc1N1CCCCC1 (stereo not given)	8%	-2%	-2%	-4%
18	Cn1cccc1C(=O)N1CCC[C@@]2(CCN(C(=O)Nc3cccc(F)c3)C2)C1	0%	.	.	-3%
19	CC(Sc1nnnn1C)C(=O)Nc1ccccc1 (stereo not given)	-14%	0%	-6%	?
20	Cc1cc(=O)oc2cc(OC(C)C(=O)Nc3ccc(N4CCOCC4)cc3)ccc12 (stereo not given)	-9%	2%[53 µM]	-16%[53 µM]	i
21	CCC(C)C(NC(=O)C(CC(C)C)NC(=O)C(CO)NC(=O)C1CCC(=O)N1)C(=O)OC (stereo not given)	-7%	-1%	1%	i
22	CC1CCN(CCOCCOc2ccc(Cl)cc2Br)CC1	.	1%	1%	7%
23	CCn1c(CNc2ccc(Cl)cc2)nnc1SCC(=O)NCc1ccccc1	-7%	-5%	1%	-6%
24	N#CC1=C(N)Nc2nc3ccccc3n2C1c1ccc(Cl)cc1 (stereo not given)	7%	-2%[53 µM]	-9%[53 µM]	-1%

cpd	KDM4E inh	Lamin A splicing	SMN2 splice enh
17	-4%	0%	-22%
18	.	.	-2%
19	3%	.	-12%
20	?	3%	-11%
21	2%	.	0%
22	2%	-5%	.
23	-1%	15%	1%
24	?	-2%	-4%

(cont.)
cpd	mol	RGS12 GoLoco inh	TexasRed fluor	TRb-SRC2 inh	RECQ1 helicase
25	CC(=O)Nc1ccnc(-c2cccnc2)n1	0%	-3%	1%	-14%
26	O=C(NCC1CCCO1)c1cc(C(=O)c2ccc(Cl)cc2Cl)c[nH]1 (stereo not given)	3%	-5%	-8%	-4%
27	COc1ccc(C(=O)OCCc2ccc(O)cc2)cc1	2%	-2%	-6%	-2%
28	O=C(/C=C/c1cccc([N+](=O)[O-])c1)Nn1c(-c2ccccc2F)nc2ccccc2c1=O	15%	-5%	2%	i
29	COc1nc(C#N)c(N2CCOCC2)o1	1%	4%	11%	4%
30	Cc1cc(N2C(=O)C(=O)/C(=C(/O)c3ccc(Cl)cc3)C2c2cccc(Br)c2)no1 (stereo not given)	-4%	3%	-2%	-1%
31	O=c1c(Cc2c(F)cccc2Cl)c(O)ccn1CCc1ccccn1	11%	-6%	-3%	i
32	O=C(NCCCn1ccnc1)Nc1ccc(Cl)cc1	0%	2%	5%	-13%

cpd	KDM4E inh	Lamin A splicing	SMN2 splice enh
25	-2%	14%	9%
26	-4%	.	-2%
27	9%	9%	?
28	-25%	?	-17%
29	2%	1%	-14%
30	-5%	-22%	-44%[inhibitor]
31	-7%	-2%[46 µM]	-1%
32	-3%	-3%	-19%

The results go on:
cpd	mol	RGS12 GoLoco inh	TexasRed fluor	TRb-SRC2 inh	RECQ1 helicase
33	Nc1nc(SCn2nnc3ccccc3c2=O)n[nH]1	3%	1%	3%	i
34	O=C(N/N=C/c1cccc(C(F)(F)F)c1)c1ccc(O)cc1	9%	-5%	3%	3%
35	COC(=O)c1ccccc1N1C(=O)[C@@H]2C(c3ccc(Br)cc3)=NO[C@@H]2C1=O	-11%	1%	-9%	13%
36	c1ccc(Nc2ccccc2Nc2ccccn2)nc1	-10%	0%	-16%	-1%
37	Cc1ccc(OC(=O)CCC(=O)OCCCC(F)(F)C(F)(F)F)cc1	-10%	-2%	-2%	9%
38	CC(C)NC(=O)c1ccccc1NC(=O)C1CCCO1 (stereo not given)	7%	-1%	-6%	-2%
39	COc1ccc(N2CCN(C(=O)CN3CCN(C(c4ccccc4)c4ccccc4)CC3)CC2)cc1	0%	-4%	1%	-11%
40	Cc1onc(-c2c(F)cccc2Cl)c1C(=O)Nc1sc2c(c1C(N)=O)CCC2	13%	-2%	-14%	-5%

cpd	KDM4E inh	Lamin A splicing	SMN2 splice enh
33	12%	?	9%
34	?	.	11%
35	45%[activator]	-3%	14%
36	-16%	-8%	-10%
37	8%	-7%	-11%
38	2%	8%	2%
39	-8%	?	8%
40	188%[activator]	-2%	10%

A portion taken from the entries so far, for reference:
cpd	mol	RGS12 GoLoco inh	TexasRed fluor	TRb-SRC2 inh	RECQ1 helicase
35	COC(=O)c1ccccc1N1C(=O)[C@@H]2C(c3ccc(Br)cc3)=NO[C@@H]2C1=O	-11%	1%	-9%	13%
36	c1ccc(Nc2ccccc2Nc2ccccn2)nc1	-10%	0%	-16%	-1%
37	Cc1ccc(OC(=O)CCC(=O)OCCCC(F)(F)C(F)(F)F)cc1	-10%	-2%	-2%	9%
38	CC(C)NC(=O)c1ccccc1NC(=O)C1CCCO1 (stereo not given)	7%	-1%	-6%	-2%
39	COc1ccc(N2CCN(C(=O)CN3CCN(C(c4ccccc4)c4ccccc4)CC3)CC2)cc1	0%	-4%	1%	-11%
40	Cc1onc(-c2c(F)cccc2Cl)c1C(=O)Nc1sc2c(c1C(N)=O)CCC2	13%	-2%	-14%	-5%

cpd	KDM4E inh	Lamin A splicing	SMN2 splice enh
35	45%[activator]	-3%	14%
36	-16%	-8%	-10%
37	8%	-7%	-11%
38	2%	8%	2%
39	-8%	?	8%
40	188%[activator]	-2%	10%

(more compounds)
cpd	mol	RGS12 GoLoco inh	TexasRed fluor	TRb-SRC2 inh	RECQ1 helicase
41	COc1cc(CN2CCN(c3ccc(C)cc3)CC2)cc([N+](=O)[O-])c1O	-4%	-2%	-7%	1%
42	C=CCNC(=O)C1CCN(c2cnccn2)CC1	-13%	0%	-13%	-14%
43	CC(=O)Oc1c(S(=O)(=O)c2ccccc2)c(C)nn1C(C)(C)C	8%	1%	-10%	6%
44	COC(OC)C12c3ccccc3C(c3ccccc31)C1C(=O)N(c3cccnc3)C(=O)C12 (stereo not given)	3%	-1%	0%	-8%
45	Cc1nc2c(C(=O)NCc3ccc(F)cc3)c[nH]n2c(=O)c1Cl	.	-1%	-5%	i
46	COc1ccc(NC(=O)CN2C(=O)CSC2=O)cc1	15%	0%	-9%	17%
47	Cc1ccc(C(=O)NCCc2nnc(SCC(=O)Nc3nc(-c4ccccc4)cs3)n2C)cc1	13%	1%	6%	0%
48	CCCSc1cc(N2CCOCC2)nc(-c2ccccc2Cl)n1	9%	-4%	1%	-17%
49	CCC(C)NC(=S)NNC(=O)c1ccc(C(C)(C)C)cc1 (stereo not given)	11%	2%	-4%	i

cpd	KDM4E inh	Lamin A splicing	SMN2 splice enh
41	1%	-7%	9%
42	?	6%[46 µM]	-13%
43	1%	?	-4%
44	-3%	4%[46 µM]	.
45	2%	2%	.
46	-4%	.	-1%
47	5%	-8%	-27%
48	4%	?	-28%
49	2%	-3%	-10%
